D2 ag: human D2 receptor agonism in beta-arrestin assay; DiscoveRx PathHunter D2 beta-arrestin, luminescence, 90 min; 100% = 57 uM dopamine signal; activation, % (concentration not given with the values); actives 0.084% (n = 360,000); in the data active = activation above about 40%; inconclusive = about 15% to 40%; inactive = below about 15%; further: compound concentration not given in the record; the text of the record calls up to 30% inactive
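Agonist mode: compounds alone added to overnight-plated D2 PathHunter cells for 90 min at 37 C, with 57 uM final dopamine (EC100) defining full response. Beta-arrestin recruitment detected by chemiluminescent reagent, read after 1 h at ambient temperature.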
Six1-Eya2 blk: inhibitors of human Six1/Eya2 interaction. AlphaScreen GST-Six1/His-Eya2 binding, biochemical; active compounds read low; control for the full effect not named in the record. activity change, % (no concentration beside the values). AID 651725. Q15475+O00167. actives 0.56% (n = 360,000); in the data active = activity change below about -65%; inconclusive = about -30% to -65%; inactive = above about -30%; further: on the % scale 0 is the no-effect control and ±100 the full control effect
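Homogeneous AlphaScreen proximity assay pairing GST-Six1 with His-tagged Eya2 (added as 5X mix: 250 nM and 500 nM) in 50 mM Tris pH 8.0, 300 mM NaCl, 1 mM TCEP. Glutathione donor and nickel acceptor beads; 1 h, 37 °C, dark.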
TRPV1 potentiator: potentiators of human vanilloid receptor 1 (TRPV1) | TRPV1-expressing cells, Fluo-8 calcium influx, capsaicin EC20 potentiation; host cell line not named in the record; control for the full effect not named in the record | potentiation, % at 8.33 µM | actives 0.02% (n = 320,000); active means potentiation above 80%; inconclusive means 30% to 80%; inactive means below 30%; further: 0% is about no effect
Target sequence (Q8NER1 whole entry, looked up): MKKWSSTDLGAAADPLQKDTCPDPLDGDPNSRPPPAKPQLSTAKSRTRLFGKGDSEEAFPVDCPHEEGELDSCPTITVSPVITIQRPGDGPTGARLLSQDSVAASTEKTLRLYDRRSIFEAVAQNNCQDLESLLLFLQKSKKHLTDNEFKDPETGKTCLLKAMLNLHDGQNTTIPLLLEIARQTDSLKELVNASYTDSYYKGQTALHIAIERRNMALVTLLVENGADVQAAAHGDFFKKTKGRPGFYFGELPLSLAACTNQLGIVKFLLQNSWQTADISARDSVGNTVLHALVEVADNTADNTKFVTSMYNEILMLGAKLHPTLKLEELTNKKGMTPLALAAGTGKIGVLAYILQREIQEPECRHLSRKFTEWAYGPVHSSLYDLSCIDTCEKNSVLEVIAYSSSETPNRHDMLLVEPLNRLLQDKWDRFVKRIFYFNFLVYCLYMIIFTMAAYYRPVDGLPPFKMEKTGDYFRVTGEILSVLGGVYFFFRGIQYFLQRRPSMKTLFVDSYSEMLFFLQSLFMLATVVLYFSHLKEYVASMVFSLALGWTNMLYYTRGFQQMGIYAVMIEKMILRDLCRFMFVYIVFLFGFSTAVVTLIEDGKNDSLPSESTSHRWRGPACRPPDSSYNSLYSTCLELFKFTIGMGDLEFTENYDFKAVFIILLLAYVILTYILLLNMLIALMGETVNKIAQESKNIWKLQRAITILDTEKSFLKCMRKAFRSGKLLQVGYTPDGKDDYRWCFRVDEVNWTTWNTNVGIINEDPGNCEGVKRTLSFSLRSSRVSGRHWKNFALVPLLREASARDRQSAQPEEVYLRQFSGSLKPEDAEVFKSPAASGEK
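Cells expressing TRPV1 were dye-loaded with Fluo-8 and read kinetically: 10 s baseline, 3 min after compound (agonist portion), then 2 min after EC20 capsaicin (allosteric enhancer portion). Calcium-bound dye fluorescence at 480/520 nm.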
D2 PAM: potentiates the human D2 dopamine receptor allosterically. P14416. DiscoveRx D2 beta-arrestin cells, luminescence, 90 min; 100% = 57 uM dopamine signal. potentiation, % (no concentration beside the values). actives 0.23% (n = 360,000). AID 624464; active = potentiation of 50% or more; inconclusive = 30% to 50%; inactive = 30% or less;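 further: compound concentration not given in the record; tested on top of an EC20 dose of dopamine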
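PathHunter D2 cells, attached overnight at 37 deg C, received compound in DMSO plus dopamine at EC20 (50 nM final) for 90 min at 37 deg C. Beta-arrestin recruitment was read as luminescence after 1 h with detection reagent at ambient temperature.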
Sfp inh: Sfp phosphopantetheinyl transferase inhibition | Potency, µM, for inactives: max response, negative = inhibition, hits mostly inhibitors | Biochemical Sfp PPTase activity, qHTS | Q9F4F7 | AID 1490 | actives 3.5% (n = 310,000); active means well fitted inhibition curve with a large enough effect; inconclusive means small, poorly fitted or top-dose-only effect, or another doubt; inactive means no such curve, though single readings can be large or run the other way;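 further: the enzyme is Sfp with the accession as filed and its product quenches rhodamine fluorescence; potency means the concentration at half of the fitted maximal effect; 0% = enzyme reaction without inhibitor and -100% = no enzyme wells; top concentration of the series not given in the record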
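Fluorescence-quenching assay with 15 nM Sfp, 5 uM rhodamine-CoA and 12.5 uM BHQ-2-labelled ybbR peptide in pH 7.6 Hepes/MgCl2 buffer. Enzyme was pre-incubated with compound for 15 min at room temperature. Rate was taken from the 30-min fluorescence change (525/598 nm).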
CtBP-E1A blk: CtBP/E1A binding inhibition | AID 651724 | activity change, % (concentration not given with the values) | AlphaScreen GST-E1A/His-CtBP binding, 1536-well; active compounds read low; control for the full effect not named in the record | actives 0.49% (n = 340,000); in the data active means activity change below about -65%; inconclusive means about -30% to -65%; inactive means above about -30%; further: on the % scale 0 is the no-effect control and ±100 the full control effect
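In 5 uL wells, 23 nL compound meets equimolar GST-E1A and His-CtBP (5X stock 125 nM each) for 2 h, 37 °C. Beads (5X, 50 ug/mL) then 1 h, 37 °C, dark.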
PINK1 expr mod: modulators of PINK1 expression; actives 0.2% (n = 410,000); Potency, µM (series often up to 76.6 µM), without a hit: at the top dose activation (PINK1 increase), hits mostly activators; PINK1 immunofluorescence, high-content cytometry, 24 h; active = well fitted activation curve with a large enough effect; inconclusive = small, poorly fitted or top-dose-only effect; inactive = flat fitted curve, though single readings scatter; cell line not stated here;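 further: potency means the concentration at half of the fitted maximal effect; % of control where 0% means no effect; nearly all actives have a fitted effect of over 65% in size; a mitochondrial uncoupler was the plate control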
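Fluorescence from anti-PINK1 antibody, together with nuclear and cell stains, was scanned on a laser-scanning cytometer. Before staining, stable-line cells were incubated 24 hours with compounds at 5 concentrations; primary antibody 12 h at 10 degrees C.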
* marks the source's active call; other numbers are inactive results; & = joins results of further samples.

What do the screens show for `CN1CCN(C(=O)C2=C[C@H](c3ccc(Br)cc3)C[C@H](OCCCCO)O2)CC1`?
D2 ag: 1.3; Six1-Eya2 blk: 2; TRPV1 potentiator: 18; D2 PAM: -14; Sfp inh: 17%; CtBP-E1A blk: 2; PINK1 expr mod: 0.4%

How did Cc1cccc(C)c1NC(=O)CN(C)C(=O)C1CCN(c2ncnc3sc(C)c(C)c23)CC1 do in these assays?
D2 ag: -0.7; Six1-Eya2 blk: inconclusive; TRPV1 potentiator: 6; D2 PAM: 25; CtBP-E1A blk: inconclusive; PINK1 expr mod: 7.1%

How did COc1ccc(Cl)cc1NC(=O)CN1C(=O)CCS(=O)(=O)c2ccccc21 do in these assays?
D2 ag: -2.4; Six1-Eya2 blk: 0; TRPV1 potentiator: -4; D2 PAM: inconclusive; Sfp inh: -8%; CtBP-E1A blk: -3; PINK1 expr mod: -0.9%

What do the screens show for `CC[C@]1(C(=O)OC)[C@H]2C(=O)N(Cc3ccccc3)C(=O)[C@H]2[C@H]2CN=C(SCc3ccc(C)cc3)N21`?
D2 ag: -1.9; Six1-Eya2 blk: -2; CtBP-E1A blk: 0; PINK1 expr mod: 1.1%

Results for CCCOc1cccc(-c2cc(C(=O)NN)c3ccccc3n2)c1 ?
D2 ag: -0.1; Six1-Eya2 blk: -1; TRPV1 potentiator: 20; D2 PAM: -12; Sfp inh: 2%; CtBP-E1A blk: -9; PINK1 expr mod: 1.9%

How did O=C(O)c1cc(N/N=C/C=C/c2ccccc2[N+](=O)[O-])ccc1Cl do in these assays?
D2 ag: -3.0; Six1-Eya2 blk: -6; D2 PAM: -9; Sfp inh: -26%; CtBP-E1A blk: -25; PINK1 expr mod: -1.1%

How did COc1ccc(NC(=O)Cn2nnc(C(=O)NCc3cccs3)c2N)c(OC)c1 do in these assays?
D2 ag: 0.6; Six1-Eya2 blk: 7; TRPV1 potentiator: -5; D2 PAM: -13; Sfp inh: -19%; CtBP-E1A blk: -11; PINK1 expr mod: -0.4%

How did COc1ccccc1NC(=S)NC(=O)/C=C/c1cccs1 do in these assays?
D2 ag: 0.3; Six1-Eya2 blk: -13; TRPV1 potentiator: inconclusive; D2 PAM: -3; Sfp inh: 3%; CtBP-E1A blk: -26; PINK1 expr mod: 0.5%

Results for Cc1cnn(-c2cc(N/N=C/c3ccc(F)cc3)ncn2)c1 ?
D2 ag: -4.5; Six1-Eya2 blk: 4; TRPV1 potentiator: 1; D2 PAM: 1; Sfp inh: 9%; CtBP-E1A blk: 2; PINK1 expr mod: 7.4%

How did CN(c1ccccc1)S(=O)(=O)c1cccc(C(=O)OCC(=O)NCc2ccc3c(c2)OCO3)c1 do in these assays?
D2 ag: 1.6; Six1-Eya2 blk: 3; TRPV1 potentiator: -9; D2 PAM: -12; Sfp inh: 5%; CtBP-E1A blk: 5; PINK1 expr mod: -0.8%

What do the screens show for `CCOCCCNC(=O)CN1C(=O)/C(=C/c2ccccc2)Sc2ccccc21`?
D2 ag: 1.0; Six1-Eya2 blk: 3; TRPV1 potentiator: -21; D2 PAM: -25; Sfp inh: -18%; CtBP-E1A blk: 15; PINK1 expr mod: 3.1%

Results for O=C1CC(=O)CC(c2ccco2)C1 ?
D2 ag: -1.6; Six1-Eya2 blk: 3; TRPV1 potentiator: 5; D2 PAM: 6; Sfp inh: 24%; CtBP-E1A blk: -6; PINK1 expr mod: 2.1%

Results for CCSc1ccc([C@@H]2[C@@H]3C(=O)N(C)C(=O)[C@@H]3[C@]3(C(=O)OC)CCCCN23)cc1 ?
D2 ag: -2.5; Six1-Eya2 blk: 1; TRPV1 potentiator: 9; D2 PAM: -11; CtBP-E1A blk: -23; PINK1 expr mod: -0.1%

What do the screens show for `Cc1nnc(SCC(=O)NNC(=O)c2ccccc2)n1-c1ccccc1`?
D2 ag: -4.9; Six1-Eya2 blk: 0; TRPV1 potentiator: 2; D2 PAM: -22; Sfp inh: -25%; CtBP-E1A blk: 18; PINK1 expr mod: -0.5%

How did CC1CCC(C(=O)NC(C(=O)N2CCc3ccccc3C2)C(C)C)CC1 (stereo not given) do in these assays?
D2 ag: -3.7; Six1-Eya2 blk: 2; TRPV1 potentiator: -1; D2 PAM: 9; Sfp inh: 13%; CtBP-E1A blk: 2; PINK1 expr mod: -0.4%

What do the screens show for `CC(NC(=O)CCCc1ccccc1)c1ccncc1` (stereo not given)?
D2 ag: 8.6; Six1-Eya2 blk: -3; TRPV1 potentiator: -16; D2 PAM: -4; Sfp inh: 13%; CtBP-E1A blk: -4; PINK1 expr mod: -0.5%

How did Cc1ccc(NC(=O)CSc2ncc(S(=O)(=O)c3ccccc3)c(=O)[nH]2)cc1C do in these assays?
D2 ag: -1.7; Six1-Eya2 blk: 5; TRPV1 potentiator: -1; D2 PAM: -4; Sfp inh: -18%; CtBP-E1A blk: 1; PINK1 expr mod: 1.2%

What do the screens show for `COC(=O)[C@@]1(Cc2ccc(OC)cc2)[C@H]2c3cc(C(=O)N(C)C)[nH]c3C[C@H]2CN1C(=O)c1ccccc1`?
D2 ag: -3.5; Six1-Eya2 blk: -1; TRPV1 potentiator: -8; D2 PAM: -6; Sfp inh: -16%&6%; CtBP-E1A blk: 6; PINK1 expr mod: 1.9%

What do the screens show for `CCOc1ccc(N(CC(=O)NC2CCCCCC2)S(=O)(=O)c2ccccc2)cc1`?
D2 ag: -9.9; Six1-Eya2 blk: 0; TRPV1 potentiator: -10; D2 PAM: -4; Sfp inh: 7%; CtBP-E1A blk: -1; PINK1 expr mod: 4.9%

Results for CCc1nc2ccccc2c(C(=O)OCC(=O)Nc2ccc(S(=O)(=O)N3CCOCC3)cc2)c1C ?
D2 ag: -3.7; Six1-Eya2 blk: -6; TRPV1 potentiator: -1; D2 PAM: -3; Sfp inh: 7%; CtBP-E1A blk: 15; PINK1 expr mod: 1.5%

Compounds listed so far that contain two or more sulfur atoms, in the order listed:
How did COc1ccccc1NC(=S)NC(=O)/C=C/c1cccs1 do in these assays?
D2 ag: 0.3; Six1-Eya2 blk: -13; TRPV1 potentiator: inconclusive; D2 PAM: -3; Sfp inh: 3%; CtBP-E1A blk: -26; PINK1 expr mod: 0.5%

How did Cc1ccc(NC(=O)CSc2ncc(S(=O)(=O)c3ccccc3)c(=O)[nH]2)cc1C do in these assays?
D2 ag: -1.7; Six1-Eya2 blk: 5; TRPV1 potentiator: -1; D2 PAM: -4; Sfp inh: -18%; CtBP-E1A blk: 1; PINK1 expr mod: 1.2%

Other structures
What do the screens show for `COc1cccc(/C=C(/C#N)c2ccc(F)cc2)c1OCc1cccc(C(=O)O)c1`?
D2 ag: -2.9; Six1-Eya2 blk: -5; TRPV1 potentiator: 11; D2 PAM: 17; Sfp inh: -1%; CtBP-E1A blk: 1; PINK1 expr mod: 2.8%

Results for Cc1ccc(OCC(=O)N/N=C/c2cc([N+](=O)[O-])ccc2N2CCCCC2)cc1 ?
D2 ag: 2.4; Six1-Eya2 blk: 3; TRPV1 potentiator: -4; D2 PAM: 5; Sfp inh: 18%; CtBP-E1A blk: 12; PINK1 expr mod: 7.9%

What do the screens show for `CC1(Cc2ccc(OC(F)(F)F)cc2)C(=O)Nc2c(Cl)ccc(Cl)c21` (stereo not given)?
D2 ag: 2.6; Six1-Eya2 blk: 2; D2 PAM: -2; CtBP-E1A blk: 5; PINK1 expr mod: 2.0%

What do the screens show for `COc1cccc(NC(=O)Nc2cc(C(=O)O)ccc2C)c1`?
D2 ag: -3.7; Six1-Eya2 blk: 9; TRPV1 potentiator: -7; D2 PAM: -3; Sfp inh: -9%; CtBP-E1A blk: 0; PINK1 expr mod: -0.4%

How did CCC(C)(C)NC(=O)C(C)OC(=O)c1nsc(Cl)c1Cl (stereo not given) do in these assays?
D2 ag: -1.8; Six1-Eya2 blk: -7; TRPV1 potentiator: 2; D2 PAM: 3; Sfp inh: 7%; CtBP-E1A blk: -7; PINK1 expr mod: 3.0%

What do the screens show for `Cc1nc(CS(=O)(=O)c2ccccn2)sc1C(=O)NNC(=O)c1ccccc1`?
D2 ag: -1.0; Six1-Eya2 blk: -3; TRPV1 potentiator: inconclusive; D2 PAM: 0; Sfp inh: -27%; CtBP-E1A blk: 5; PINK1 expr mod: 3.1%

Results for CCOc1ccccc1Cn1c(=O)oc2ccc(C)cc21 ?
D2 ag: 1.1; Six1-Eya2 blk: 29; TRPV1 potentiator: -13; D2 PAM: -5; Sfp inh: -2%; CtBP-E1A blk: 12; PINK1 expr mod: 2.8%

Results for CN(C)c1ccc(C(CNC(=O)c2ccccc2)c2c[nH]c3ccccc23)cc1 (stereo not given) ?
D2 ag: -2.3; Six1-Eya2 blk: 0; TRPV1 potentiator: 14; D2 PAM: -5; Sfp inh: 31%; CtBP-E1A blk: -25; PINK1 expr mod: -2.7%

How did COc1ccc(-c2nnc(SCC(=O)NC(C)c3ccccc3)o2)cc1 (stereo not given) do in these assays?
D2 ag: -4.1; Six1-Eya2 blk: -3; TRPV1 potentiator: -4; D2 PAM: -3; Sfp inh: 5%; CtBP-E1A blk: 0; PINK1 expr mod: 2.2%

How did CC1(C)CC(=O)C(Sc2ccc(Br)cc2)=C(O)C1 do in these assays?
D2 ag: 5.7; Six1-Eya2 blk: 3; TRPV1 potentiator: 19; D2 PAM: 7; Sfp inh: -6%; CtBP-E1A blk: -12; PINK1 expr mod: 1.2%

Results for CCc1ccc(NC(=O)CSc2nnc(CNC(=O)c3cccs3)o2)cc1 ?
D2 ag: -1.3; Six1-Eya2 blk: 2; TRPV1 potentiator: 28; D2 PAM: -19; Sfp inh: 20%; CtBP-E1A blk: 2; PINK1 expr mod: 3.7%

How did O=[N+]([O-])c1cccc(-c2noc(-c3cccs3)n2)c1 do in these assays?
D2 ag: 1.2; Six1-Eya2 blk: -2; TRPV1 potentiator: 1; D2 PAM: 6; Sfp inh: 0%; PINK1 expr mod: -0.2%

How did CC(=O)N1CCN(C(=O)c2ccc(Cl)c(S(=O)(=O)N3CCCCCC3)c2)CC1 do in these assays?
D2 ag: 1.4; Six1-Eya2 blk: 11; TRPV1 potentiator: -4; D2 PAM: -6; CtBP-E1A blk: 7; PINK1 expr mod: -0.2%

Results for O=C(CSc1nnc(-c2ccc3c(c2)OCO3)o1)Nc1c(F)cccc1F ?
D2 ag: 5.7; Six1-Eya2 blk: -13; D2 PAM: -1; CtBP-E1A blk: 1; PINK1 expr mod: 0.5%

How did Cc1cc(C)n2nc(SCC(=O)N3CCCC3)nc2n1 do in these assays?
D2 ag: -1.3; Six1-Eya2 blk: -1; D2 PAM: -10; CtBP-E1A blk: 5; PINK1 expr mod: 0.2%

Assay outcomes as filed in PubChem BioAssay.
